Vaccinia pol inh – vaccinia E9 polymerase processive synthesis inhibition | normalized absorbance, % (concentration not given with the values) | 46,000 tested, 0.94% active | in vitro processive DNA synthesis, absorbance read-out; active compounds read low; some inactives read as strong as hits;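 active = replicate mean up to 90% and picked by the depositor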;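 note: 100% = median of the test wells of a plate; 100 nL library stock went into each well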
* = called active by the depositor. This is a subset, so the mix of outcomes need not match the whole.

SMILES	Vaccinia pol inh
Cc1nc2ccccc2c2oc(C(=O)NCCN(C)C3CCCCC3)cc12	45.9*
CCn1c2ccccc2c2cc(CN3CCN(Cc4cccc(C)c4)CC3)ccc21	99.4
CN(C)/C=C/C(=O)c1cc(F)ccc1O	100.2
CCc1ccc(C2C3=C(CCCC3=O)Nc3[nH]n(-c4ccccc4)c(=O)c32)cc1 (stereo unspecified)	104.4
CCn1c(-c2csc3ccccc23)n[nH]c1=S	91.9
O=c1[nH]c2ccccc2c(=O)n1CCN1CCSCC1	107.6
Clc1nc(NCCN2CCOCC2)nc(NC2CCCCC2)n1	99.8
N#Cc1ccsc1NC(=O)c1cccs1	100.4
Cc1cccc(NC(=O)c2cccnc2)c1C	100.7
O=C(Nc1ccc(N2CCN(c3ccc(C(F)(F)F)cn3)CC2)nc1)c1cccs1	101.0
CCOC(=O)CSc1cc(=O)n(CC)c2ccccc12	95.5
COc1ccc2c(c1OC)C(=O)OC2[C@H]1c2c(cc3c(c2OC)OCO3)CCN1C (stereo partly specified)	97.2
N#Cc1nc2c(C#N)c(N)n(CCc3ccccc3)c2nc1C#N	100.9
COc1cccc2c1OCC(C#N)=C2	121.9
Fc1ccc(-n2nnnc2-c2cccc(C(F)(F)F)c2)cc1F	92.4
CCc1ccc(NC2=NCCS2)cc1	102.6
CNc1nc2c(Cl)cc(Cl)cc2s1	97.7
O=C(CN1CCN(Cc2ccccc2)C1=O)NC1CCCCCCC1	94.6
O=C(Cc1ccc(Cl)cc1)Nc1cccc(-c2nc3cc4ccccc4cc3[nH]2)c1	100.2
NC(=O)C1C(=O)NC(c2ccccc2)=CC1c1ccc(Cl)cc1 (stereo unspecified)	100.0
Cc1nn(C(=O)C23CC4CC(CC(C4)C2)C3)c(C)c1Sc1ccccc1	99.8
COC(=O)C1(C(=O)OC)CC=CC1	102.6
CCOC(=O)c1c(-c2ccccc2)oc2ccc(NS(=O)(=O)c3ccc(CC)cc3)cc12	100.3
Fc1cnc(Nc2ccc3c(c2)OCO3)nc1Nc1ccc2c(c1)OCO2	94.6
O=C(Nc1ccc(-c2nc3ccccc3s2)cc1)C1CCCO1 (stereo unspecified)	99.7
Additional results follow:
SMILES	Vaccinia pol inh
COc1cccc(C(=O)SC2=NCCS2)c1	88.6
CCOC(=O)c1nnn2c1nc(N(Cc1ccccc1)Cc1ccccc1)c1ccccc12	108.0
Cc1ccc(-c2nc3ncccn3c2NC(=O)c2cccc(C(F)(F)F)c2)cc1	104.1
Cn1c(=O)cc(OCC(=O)NCC2COc3ccccc3O2)c2ccccc21 (stereo unspecified)	88.0
CCOc1ccc(NC(=O)c2c3c(nc4ccccc24)CCCC3)cc1	97.9
CC1CCCC(C)N1CC(O)c1ccccc1 (stereo unspecified)	96.3
Clc1ccc(COC(Cn2ccnc2)c2ccc(Cl)cc2Cl)c(Cl)c1 (stereo unspecified)	100.9
CCc1cc2c(=O)c(-c3nc4ccccc4s3)c(C)oc2c(CN(C)C)c1O	97.7
C/C(=N\O)c1ccc2c3ccccc3n(C)c2c1	88.4
CCN(CC)C(=O)c1cc(-c2ccc(OC)c(OC)c2)on1	101.7
CCCc1n(CC(O)COCC2CC=CCC2)c2ccccc2[n+]1C (stereo unspecified)	100.0
O=C(O)CC12CC3CC(C1)CC(C(=O)O)(C3)C2	104.4
CC(C(=O)O)c1ccc(N)cc1 (stereo unspecified)	89.6
N#CC(C(=O)c1ccc(F)cc1)c1nc2ccccc2c(=O)[nH]1 (stereo unspecified)	97.8
CN(C)c1ccc(NC(=O)c2cccs2)cc1	114.0
Cc1ccc(S(=O)(=O)NC(C)C(=O)O)cc1 (stereo unspecified)	99.5
N#C/C(=C1/CCCCCN1)c1nc2ccccc2[nH]1	89.0
CNC(=O)c1c(O)c2cccc3c2n(c1=O)CCC3	105.2
C/[N+]([O-])=C\c1coc2ccccc2c1=O	98.9
CCOC(=O)c1ccc(-c2ccc(/C=c3/sc4nc5c(C)c(C)ccc5n4c3=O)o2)cc1	100.2
Cc1c(C)c(C)c2[nH]c(-c3ccc4c(c3)OCO4)nc2c1C	100.9
Cc1cc(C)n(-c2ccc(C(=O)NC3CCCCC3)cc2)n1	94.0
O=C1CC(n2nc(Nc3ccccc3)n(-c3ccccc3)c2=S)C2COC1O2 (stereo unspecified)	101.5
Cc1cc(C)cc(OC(=O)CCN2C(=O)c3ccccc3C2=O)c1	101.4
CC1CC(=O)NN=C1c1cccs1 (stereo unspecified)	107.7
Additional structures follow.
SMILES	Vaccinia pol inh
CN1C(=O)/C(=C2\SC(=S)N(C3CCS(=O)(=O)C3)C2=O)c2cc(Br)ccc21 (stereo unspecified)	100.9
Cc1ccc(Cc2nn[nH]n2)cc1	105.9
CCCCn1c(C)nc2ccc(S(N)(=O)=O)cc21	103.0
CSc1ccc(C2C3CCCc4ccccc4C3=NN2CCO)cc1 (stereo unspecified)	99.0
CC1CCCCN1S(=O)(=O)c1ccc(CN2C(=O)c3cccnc3C2=O)cc1 (stereo unspecified)	95.4
CC1(C)CC(=O)c2cnc(NCc3ccccc3)nc2C1	100.1
O=C(NC1CC1)c1ccc(CS(=O)c2ccccc2)o1 (stereo unspecified)	94.2
CNC(=O)c1ccc(OC(C)=O)cc1	100.1
Cc1ccc(NC(=O)C(NS(=O)(=O)c2ccc3nc(C)sc3c2)C(C)C)cc1 (stereo unspecified)	104.6
O=C(/C=C/c1ccccc1)CC(O)(c1ccccc1)C(F)(F)F (stereo unspecified)	104.7
OC[C@H]1O[C@@H](n2cnc3cc(Cl)c(Cl)cc32)C(O)[C@H]1O (stereo partly specified)	100.2
O=C(NC1CC1)c1ccccc1SCc1ccc(F)cc1	98.4
Clc1ccc(OCc2ccsc2Cn2cccc2)cc1	99.1
Cc1ccc(NC2C=CS(=O)(=O)C2)cc1 (stereo unspecified)	100.2
O=C(O)c1cc(NS(=O)(=O)c2ccc3ccccc3c2)ccc1O	97.2
O=C(COc1ccccc1)N1CCN(C(=O)COc2ccccc2)CC1	98.0
Cc1cc(N2CCOCC2)nc2ccccc12	110.6
O=S(=O)(c1ccccc1Oc1ccc(Cl)cc1Cl)N1CCSCC1	97.3
COc1ccc2c(-c3ccccc3)cc(=O)[nH]c2c1	102.1
CC1CCC(C(C)C)C(OC(=O)CN2CCCCC2)C1 (stereo unspecified)	100.5
CC(C)Nc1nc(Cl)nc(NC(C)(C)CO)n1	100.2
OCc1ccccc1O	98.1
COc1cccc(CNCC(O)Cn2nnnc2-c2ccccc2)c1 (stereo unspecified)	107.4
CCN1CCCC1CNC(=O)c1cc(NC(C)=O)c(N(C)C)cc1OC (stereo unspecified)	99.9
Nc1ccc(Sc2ccccc2Cl)cc1	97.0

Reprinted at random: 12 entries already listed.
SMILES	Vaccinia pol inh
Clc1ccc(OCc2ccsc2Cn2cccc2)cc1	99.1
O=C(NC1CC1)c1ccccc1SCc1ccc(F)cc1	98.4
CCN1CCCC1CNC(=O)c1cc(NC(C)=O)c(N(C)C)cc1OC (stereo unspecified)	99.9
CC(C)Nc1nc(Cl)nc(NC(C)(C)CO)n1	100.2
CCCCn1c(C)nc2ccc(S(N)(=O)=O)cc21	103.0
CSc1ccc(C2C3CCCc4ccccc4C3=NN2CCO)cc1 (stereo unspecified)	99.0
COc1ccc2c(-c3ccccc3)cc(=O)[nH]c2c1	102.1
Cc1ccc(NC2C=CS(=O)(=O)C2)cc1 (stereo unspecified)	100.2
CC1CCCCN1S(=O)(=O)c1ccc(CN2C(=O)c3cccnc3C2=O)cc1 (stereo unspecified)	95.4
COc1cccc(CNCC(O)Cn2nnnc2-c2ccccc2)c1 (stereo unspecified)	107.4
CN1C(=O)/C(=C2\SC(=S)N(C3CCS(=O)(=O)C3)C2=O)c2cc(Br)ccc21 (stereo unspecified)	100.9
OCc1ccccc1O	98.1

(further entries)
SMILES	Vaccinia pol inh
O=C(CSc1nc2ccccc2o1)N1CCC(n2cccc2)CC1	107.9
CC(C)Oc1nc(-c2ccccc2)nc(-c2ccccc2)c1C#N	84.9
COc1ccccc1N1C(=O)C2C3C=CC(C3)C2C1=O (stereo unspecified)	88.9
COC(=O)c1c(N)sc(/C(C)=C/C#N)c1C	99.7
COC(=O)C1=C(C)NC2=C(C(=O)CC(C)(C)C2)C1c1ccncc1 (stereo unspecified)	100.3
O=C(NCc1ccc(Cl)cc1)c1ccc(-n2cccn2)nc1	98.3
CCc1ccc(NC(=O)CCc2nc3cccnc3n2-c2ccccc2)cc1	102.6
CNS(=O)(=O)c1ccc(F)cc1	97.5
CC1CCCN(CC(O)COCc2cccs2)C1 (stereo unspecified)	95.8
Cn1c(=O)cc(Nc2ccccc2)c2c(=O)n(-c3ccccc3)c(=O)n(-c3ccccc3)c21	100.1
CC(=O)Nc1cc(NC(C)=O)cc(C(F)(F)F)c1	97.3
Nc1ccc(S(=O)(=O)NC(=O)c2ccccc2)cc1	99.8
Nc1c(Nc2ccc(F)cc2)sc2c(O)cc(=O)[nH]c12	87.5
COC(=O)C1=C(C)SC(N)=C(C#N)C1c1ccc(OC(C)C)c(OC)c1 (stereo unspecified)	99.8
Cc1ccccc1Cn1cc(C)c(=O)[nH]c1=O	111.7
CCOc1ccccc1CNC(=O)c1cn(-c2cccc(OC)c2)c(=O)c2ccccc12	99.7
CCCc1noc2c1C(c1cc(Br)ccc1F)C(C#N)=C(N)N2 (stereo unspecified)	111.3
CC(NC(=O)Cc1noc2ccccc12)c1ccccc1 (stereo unspecified)	91.3
COc1ccc(Cn2c(=O)[nH]c3cc(C(=O)NCc4ccccc4)ccc3c2=O)cc1	100.2
Nc1cc(Cl)ccc1C(=O)OCC(=O)N1CCCC1	105.5
CC(NC(=O)CSc1nc2ccc(N=Cc3ccccc3O)cc2s1)c1ccccc1 (stereo unspecified)	108.0
O=C(Cn1ncc2ccccc21)NCCc1ccccc1	105.9
CCCc1cc(=O)oc2cc(OCC(=O)NC3CCCC3)c(Cl)cc12	107.3
C/C(=N\O)c1nnn(-c2cc(C(F)(F)F)cc(C(F)(F)F)c2)c1C	104.7
S=C(NC1CCCCC1)N(Cc1ccccc1)Cc1ccccc1	100.3
(next part)
SMILES	Vaccinia pol inh
CCC[C@@H]1C[C@@H](C(=O)NC(C(C)Cl)C2O[C@H](SC)[C@H](O)[C@@H](O)[C@H]2O)N(C)C1 (stereo partly specified)	100.0
N#C/C(=N\O)c1nc(-c2ccc(F)cc2)cs1	100.2
CCc1ccc(-c2nn(-c3ccccc3)cc2C#N)cc1	101.7
NC(=O)CN1C(=O)c2cccc3cccc1c23	100.6
CCC(C)n1c(=O)[nH][nH]c1=S (stereo unspecified)	101.3
COc1ccc(CNC(=O)CN2N=C(c3ccc(Cl)cc3)CCC2=O)c(OC)c1	105.3
Cc1nc2ccccc2n1CC(=O)Nc1cccc(Br)c1	102.0
Cc1cc(C)cc(N2C(=O)CSC2c2cccs2)c1 (stereo unspecified)	100.3
COc1ccc(S(=O)(=O)N2CCCc3ccccc32)cc1C(=O)O	101.7
O=C(O)CCNc1ncnc2ccccc12	97.5
O=C(O)CCn1c(=O)n(CCC(=O)O)c2c(Cl)cc(Cl)cc21	98.9
CCCC[N+]1(C)C2CCC1CC(O)C2 (stereo unspecified)	100.2
O=C(/C=C/c1cccs1)NCCC1=CCCCC1	124.6
COC(=O)c1ccc2c(c1)N(CC#N)C(=O)CS2	109.6
c1ccc(-c2nc(N3CCCC3)nc3ccccc23)cc1	99.3
COc1cc(C=Nc2cc(C)ccc2C)cc(OC)c1OC	100.4
CCOc1ccc(C(=O)Nc2sc3c(c2C(=O)NCc2cccnc2)CCCC3)cc1	100.4
CC1CCCC(NC(=O)COC(=O)c2n[nH]c3ccccc23)C1C (stereo unspecified)	101.6
CC1=C(C#N)C(c2ccccc2)C2=C(CC(c3ccc(Br)cc3)CC2=O)O1 (stereo unspecified)	99.8
CC1CCN(c2cc(N(C)C)c3noc4c3c2C(=O)c2ccccc2-4)CC1	69.9*
O=C1C(CCS(=O)c2ccccc2)C(=O)N(c2ccccc2)N1c1ccccc1 (stereo unspecified)	97.8
O=C(Nc1ccccc1)c1csc(-c2ccccc2)n1	99.8
O=C(OC1c2ccccc2C(=O)N1Cc1ccccc1)c1cccc(Cl)c1 (stereo unspecified)	102.0
COc1ccc(C2CNC(=O)C2)cc1 (stereo unspecified)	107.1
O=C(Nc1cccc(Cl)c1)/C(=C\c1cccnc1)NC(=O)c1cccs1	97.9
(cont.)
SMILES	Vaccinia pol inh
[O-][n+]1c2c(nn1-c1ccccc1Cl)-c1nonc1CC2	99.2
S=c1[nH]nc(-c2ccncc2)n1/N=C/c1cccnc1	106.1
COc1cccc(/C=C(/C(=O)O)c2ccccc2)c1	93.0
O=S(=O)(c1cccc2c(I)cccc12)N1CCCNCC1	92.9
CCN(CC)c1ccc(C2(C(F)(F)F)NN(c3ccccc3)C(N)=C2C#N)cc1 (stereo unspecified)	99.9
COc1ccc(/C=C/C(=O)Nc2nccs2)cc1OC	86.0
CC(C)C(=O)Nc1nnc(SCC(=O)N2CCCc3ccccc32)s1	101.1
COC(=O)c1cc2cc(Br)ccc2s1	95.4
N#Cc1c2c(c(O)[nH]c1=O)CN(Cc1ccccc1)CC2	106.6
CC(Oc1ccccc1)C(=O)N1CCN=C1SCc1ccccc1 (stereo unspecified)	103.5
O=C(Oc1ccccc1)Oc1ccc2oc(=O)sc2c1	101.3
O=S(c1nc2ccccc2s1)N1CCOCC1 (stereo unspecified)	100.4
COC(=O)Nc1ccc(S(=O)(=O)N2CCCc3ccccc32)cc1	99.8
CCOC(=O)C1(c2csc(N)n2)COC(=O)C1 (stereo unspecified)	99.6
O=C(O)CCCN1C(=O)C2C3C=CC(C3)C2C1=O (stereo unspecified)	100.3
CCCc1cc(=O)[nH]c(SCC(=O)NCCc2ccccc2)n1	100.1
O=C1Nc2ccc(S(=O)(=O)NCc3ccccn3)c3cccc1c23	118.0
COc1ccc(NC(=O)c2ccco2)cc1NC(=O)Cc1ccccc1	106.9
CCCc1cc(=O)[nH]c(SCc2nc3ccccc3[nH]2)n1	100.8

Screens as filed in PubChem BioAssay.
